# gsp agonist = qHTS for Agonist of gsp, the Etiologic Mutation Responsible for Fibrous Dysplasia/McCune-Albright Syndrome: qHTS | Potency, µM (series often up to 76.9 µM), for the others: at the top dose activation (cAMP increase), hits mostly activators | AID 624287, 2012 | gsp mutant cells, cAMP HTRF, 30 min; control for the full effect not named in the record | actives 0.13% (n = 340,000); active = well fitted activation curve with a large enough effect; inconclusive = small, poorly fitted or top-dose-only effect, or another doubt; inactive = no such curve, though single readings can be large or run the other way; cell line not stated here;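 note: phosphodiesterase inhibitor Ro 20-1724 added with compounds to block cAMP breakdown; potency is the fitted concentration of half-maximal effect; nearly all actives have a fitted effect of over 60% in size; about a fifth of the inactives were tested at one dose only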
#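 Cells in DMEM/10% FBS with G418 were pretreated with compounds in DMSO plus […] (300 uM stock) for 30 min at 37C. cAMP was measured by HTRF (cAMP-d2 plus anti-cAMP antibody-K) after 30 min at room temperature.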
# ClpP mod = qHTS Assay for Activators of ClpP; purified B. subtilis ClpP, FRET peptide cleavage, 20 min; actives 1.9% (n = 340,000); Potency, µM (doses to about 57.5 µM), for inactives: at the highest dose activity change, negative = active; active = well fitted falling curve with a large enough effect; inconclusive = small, poorly fitted or top-dose-only effect; inactive = no such curve, though single readings can be large or run the other way; note: potency is the fitted concentration of half-maximal effect; the source files actives as falling curves though it sought activators and does not explain the sign; nearly all actives have a fitted effect of over 65% in size; many hits overshoot -100%
# Target sequence (P80244 whole entry, looked up): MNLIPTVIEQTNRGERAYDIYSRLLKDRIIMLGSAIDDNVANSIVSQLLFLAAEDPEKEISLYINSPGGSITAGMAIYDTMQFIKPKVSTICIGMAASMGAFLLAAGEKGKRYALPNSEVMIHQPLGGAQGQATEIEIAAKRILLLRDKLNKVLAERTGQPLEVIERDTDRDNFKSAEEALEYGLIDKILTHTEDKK
#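 ClpP 10 microg/mL final, pH 8 Tris/KCl buffer with BSA, glycerol, Tween-20; compound pinned in; FRET-FV substrate; RT 20 min; Ex320/Em430; ΔFRET vs ADEP 5.8 microM, DMSO, no enzyme.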
# D2 agonist = Beta-Arrestin HTS for Positive Allosteric Modulators of the Human D2 Dopamine Receptor: Agonists; activation, % (test concentration not listed); actives 0.084% (n = 360,000); DiscoveRx PathHunter D2 beta-arrestin, luminescence, 90 min; 100% = 57 uM dopamine signal; D(2) dopamine receptor (Homo sapiens), P14416; in the data active = activation above about 40%; inconclusive = about 15% to 40%; inactive = below about 15%; note: compound concentration not given in the record; the text of the record calls up to 30% inactive
# Target sequence (P14416 whole entry, looked up): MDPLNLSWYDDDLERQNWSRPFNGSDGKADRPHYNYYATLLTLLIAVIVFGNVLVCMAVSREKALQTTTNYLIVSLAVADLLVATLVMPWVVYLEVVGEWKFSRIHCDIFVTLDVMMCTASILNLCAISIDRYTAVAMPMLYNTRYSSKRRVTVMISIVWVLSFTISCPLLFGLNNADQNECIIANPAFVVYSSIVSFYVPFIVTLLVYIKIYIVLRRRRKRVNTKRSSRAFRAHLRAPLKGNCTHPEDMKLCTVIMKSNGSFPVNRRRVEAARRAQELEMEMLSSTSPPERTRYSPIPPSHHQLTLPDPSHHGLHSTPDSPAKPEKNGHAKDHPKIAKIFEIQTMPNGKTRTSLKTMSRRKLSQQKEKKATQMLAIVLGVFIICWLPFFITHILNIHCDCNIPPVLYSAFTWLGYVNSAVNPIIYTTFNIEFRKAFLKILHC
#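 DiscoveRx PathHunter D2 beta-arrestin cells (2,100/well) attached overnight, then compound-stimulated 90 min at 37 C in HBSS/10 mM HEPES/0.1% Tween-20 buffer; beta-galactosidase complementation read by luminescence after 1 h at ambient temperature. Dopamine 57 uM final (EC100) as control.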
# Sfp PPTase inh = qHTS Assay for Inhibitors of Bacillus subtilis Sfp phosphopantetheinyl transferase (PPTase); AID 1490, 2009; 4'-phosphopantetheinyl transferase ffp (Bacillus subtilis), Q9F4F7; actives 3.5% (n = 310,000); Biochemical Sfp PPTase activity, qHTS; Potency, µM, inactives show max response, negative = inhibition, usual class: inhibitors; active = well fitted inhibition curve with a large enough effect; inconclusive = small, poorly fitted or top-dose-only effect, or another doubt; inactive = no such curve, though single readings can be large or run the other way;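 note: the enzyme is Sfp with the accession as filed and its product quenches rhodamine fluorescence; potency is the fitted concentration of half-maximal effect; 0% = enzyme reaction without inhibitor and -100% = no enzyme wells; top concentration of the series not given in the record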
#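 With Hepes-Na pH 7.6 buffer containing 10 mM MgCl2, Sfp (15 nM) modified BHQ-2-YbbR (12.5 uM) using rhodamine-CoA (5 uM). Two reads 30 minutes apart at 525/598 nm yielded each well's rate.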
# gsp antagonist = qHTS for Antagonists of gsp, the Etiologic Mutation Responsible for Fibrous Dysplasia/McCune-Albright Syndrome: qHTS. gsp-mutant cells, cAMP HTRF, 30 min; control for the full effect not named in the record. Potency, µM (top dose mostly 76.9 µM), for inactives: at the highest dose activity change, negative = inhibition, most hits filed as inhibitors. actives 0.4% (n = 340,000). AID 624288, 2012; active = falling curve of any shape with a large fitted effect; inconclusive = falling curve, mostly with a smaller effect; inactive = flat or rising curve; cell line not stated here;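 note: intracellular cAMP measured with PDE inhibitor Ro 20-1724 present during compound exposure; potency is the fitted concentration of half-maximal effect; % is set by controls: 0 for no effect and ±100 for the full control effect; nearly all actives have a fitted effect of over 65% in size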
#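 HTRF cAMP measurement after 30 min RT detection following 30 min, 37C compound treatment alongside […] (added as 300 uM solution) in G418-selected cells seeded at 2000/well and grown 16–24 h.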
# Menin-MLL FL inh = qHTS Assay for Inhibitors Targeting the Menin-MLL Interaction in MLL Related Leukemias: Competition With Fluorescein Labeled MLL-derived Peptide. Fluorescence polarization, fluorescein-MLL peptide displacement from menin. 290,000 tested, under 10 active. FP activity change, % at 61.4 µM; inconclusive = falling polarisation curve, or a change in total fluorescence; inactive = total fluorescence flat and polarisation flat or rising; no compound was filed as active; the % refers to the polarisation; negative = inhibition;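 note: % of control where 0% means no effect; inhibitors lower the polarisation; unlabelled MLL peptide was the positive control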
# PINK1 modulator = A Quantitative High throughput Screen to Identify Chemical Modulators of PINK1 Expression; Potency, µM (series often up to 76.6 µM), for inactives: at the top dose activation (PINK1 increase), hits mostly activators; actives 0.2% (n = 410,000); PINK1 immunofluorescence, high-content cytometry, 24 h; active = well fitted activation curve with a large enough effect; inconclusive = small, poorly fitted or top-dose-only effect; inactive = flat fitted curve, though single readings scatter; cell line not stated here;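 note: potency is the fitted concentration of half-maximal effect; % of control where 0% means no effect; nearly all actives have a fitted effect of over 65% in size; a mitochondrial uncoupler was the plate control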
#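 Decision-based qHTS: stable cells, 24 h exposure to five compound concentrations, CCCP as control. Fixed cells stained for PINK1 plus nuclear, mitochondrial and cell markers, cytometer read.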
# * hit, by the source's call; ? = inconclusive; nt = not tested or not shown; & = joins results of further samples; [ ] = dose if it differs, or a comment. Only part of the results is shown, so the mix of outcomes need not match the whole.
SMILES,gsp agonist,ClpP mod,D2 agonist,Sfp PPTase inh,gsp antagonist,Menin-MLL FL inh,PINK1 modulator
CC(=NCc1ccco1)c1c(O)n(C)c(=O)n(C)c1=O,27%,0.3%,-3.6,-8%,3%,2.0,1.3%
CN(C)C(=O)Nc1cccc(OC(=O)N(C)C)c1,4%,0.2%,-2.0,-1%,16%,-0.2,-2.3%
CC(=NCCc1ccccc1)c1c(O)[nH]c(=O)[nH]c1=O,-8%[15.4 µM],nt,1.4,22%,-5%,1.4,2.9%
CCC(=NCCC1=CCCCC1)c1c(O)[nH]c(=O)[nH]c1=O,2%,0.9%,0.8,7%,2%,3.1,0.0%
CCCOc1ccc(C(C)=O)cc1Cc1c(O)[nH]c(=S)[nH]c1=O,-1%[15.4 µM],-0.3%,-6.4,?,-20%,2.4,-1.4%
O=C(CCC(=O)N1C[C@H]2C[C@@H](C1)c1cccc(=O)n1C2)NCc1cccc(C(F)(F)F)c1,nt,-16%,-5.6,7%,3%,-0.8,0.6%
O=C(COc1ccccc1)N1CCN(C/C=C/c2ccccc2)CC1,-17%,0.8%,-2.6,12%,1%,2.2,-3.0%
O=C(CCN1CCCCC1)Nc1ccc(Br)cc1C(=O)c1ccccc1,14%,nt,-3.5,8%,4%,1.3,-1.0%
O=c1[nH]c(=O)n(CCc2ccccc2)c(O)c1C=NCCCn1ccnc1,-25%,-1.2%,0.1,16%,-1%,2.0,-1.2%
O=C1NC(=O)N(c2ccccc2)C(=O)/C1=C/c1ccc([N+](=O)[O-])s1,-37%[inhibitor],nt,10,35µM*,-19%,?,-1.7%
O=C(O)C1CN2CCC1CC2 (configuration not stated),?,-1.3%,0.6,-13%,6%,-1.6,2.0%[38.3 µM]
Cc1cc(C(=O)CS(=O)(=O)c2ccc(F)cc2)cc(C)c1OC(=O)N(C)C,0%[15.4 µM],nt,6.1,2%,nt,5.1,0.7%
COc1ccc(C(=O)O/N=C(/C(N)=O)P(=O)(OC(C)C)OC(C)C)cc1,-3%[15.4 µM],nt,1.8,3%,13%,0.4,2.4%
COc1cccc(C(=O)C2CCCN(Cc3cnn(C(C)C)c3)C2)c1 (configuration not stated),3%[15.4 µM],nt,-3.7,-2%,2%,1.4,2.1%
CCOC(=O)c1cccc(C2=C(CNC(=O)c3ccncc3)[C@H]3CC[C@@H](C2)N3Cc2ccccc2)c1,?,-2.6%,1.2,nt,nt,nt,-1.4%
CCN1C(=O)C(=Cc2ccc(N3CCOCC3)o2)C(=O)N(CC)C1=S,-12%,2.1%,-6.5,-23%,-4%,?,3.4%
COc1ccc(C(=O)Cn2c(NCCCl)nc3ccccc32)cc1,-12%,0.9%,-5.0,24%,?,0.2,0.3%
O=CNc1ccc(OP(=O)(Oc2ccccc2)Oc2ccccc2)cc1,11%,nt,-5.0,12%,-1%,-1.1,2.6%
CNC(=O)CSP(=S)(OC)OC,nt,-10%,-3.0,?,-6%,1.6,0.7%&-1.0%
COc1ccc(N=Cc2c(O)n(-c3ccc(C)cc3)c(=O)[nH]c2=O)cc1,19%,nt,-3.2,1%,-8%,3.1,1.1%
CCOC(=O)c1cc(CC)sc1/N=C/c1c(O)[nH]c(=S)[nH]c1=O,-1%,-2.9%,-7.0,8.9µM*,-1%,?,0.9%
CCN(CC)CCCOC(=O)C(OC(C)C)(c1ccccc1)c1ccccc1,5%,-2.3%,-2.4,5%,15%,0.0,-4.9%[38.3 µM]
FC(F)(F)c1cccc(NC2=NCCS2)c1,14%,1.1%,-4.9,nt,nt,nt,2.4%
Cc1ccc(N2C(=O)CC(=O)NC2=O)cc1Cl,-24%,nt,-2.8,-7%,8%,8.0,-1.0%
C(=NC12CN3CN(CN(C3)C1)C2)c1cccnc1,4%,-3.2%,1.2,4%,6%,2.1,-1.3%
O=C(Cc1ccc(Cl)cc1)NCCN1CCN(C(=O)Cc2ccc(Cl)cc2)CC1,28%,1.6%,-4.0,-4%,10%,-2.2,3.4%
CC(C)(C)C(=O)O[C@H]1CC[C@@]2(C)C(=CC(=O)C3C2CC[C@]2(C)C(=O)[C@@H](F)CC32)C1 (some centres not stated),19%[15.4 µM],0.8%,-1.1,nt,-26%,nt,1.3%
Nc1cccc2cccc([N+](=O)[O-])c12,1%,16µM*,-5.6,nt,-1%,nt,-0.1%
Oc1cc(Cl)ccc1Oc1ccc(Cl)cc1Cl,nt,-2.2%,-0.5,6%,-23%,6.1,?
COc1ccc(-n2c(O)c(C(C)=NC3CC3)c(=O)[nH]c2=O)cc1,-68%[inhibitor],-1.8%,-3.9,1%,6%,-0.6,1.3%
Cn1cccc1CNCCc1ccc(F)cc1,-52%[inhibitor],-3.4%,0.9,4%,7%,0.6,0.2%[38.3 µM]
CCOC(=O)c1c(NC(=O)C(c2ccccc2)c2ccccc2)sc2c1C1CCN2CC1,-5%,?,-4.0,?,-18%,0.5,9.3%
c1ccc(OCC2CO2)cc1 (configuration not stated),nt,-1.8%,-4.5,nt,-6%,nt,0.7%
Cc1c(C=O)c2ccccc2n1Cc1ccccc1F,-19%,nt,1.3,4%,0%,-6.7,6.4%
COc1ccc(CN2C(=O)NC(=O)/C(=C\c3ccc(OC)c(OC)c3OC)C2=O)cc1,-15%[15.4 µM],nt,-0.5,56µM*,1%,19,0.5%
CCCCCn1cc(C(=O)C(=O)N2CCOCC2)c2ccccc21,-21%,-0.6%,0.3,13%,-7%,nt,0.1%
CN(C)c1ccc(/C=C/c2cc[n+](C)c3ccccc23)cc1,-128%&-12%[inhibitor],0.7%&0.8%&0.2%,-10&1.5,56µM*,?,?,25µM*
O=C1C2CCCN2C(c2ccccc2)N1c1ccccn1 (configuration not stated),0%,1.2%,-5.5,6%,-1%,4.0,1.9%
COC(=O)Cn1cc(C(=O)c2ccccc2F)c2ccccc21,3%[15.4 µM],-1.6%,-6.2,5%,-25%,-2.1,-1.0%
COC(=O)C1=C(c2ccc(S(C)(=O)=O)cc2)C[C@@H]2CC[C@H]1N2C(=O)N1CCCC1,nt,1.8%,0.4,nt,4%,nt,-0.5%

# Random excerpt: 2 compounds from above.
SMILES,gsp agonist,ClpP mod,D2 agonist,Sfp PPTase inh,gsp antagonist,Menin-MLL FL inh,PINK1 modulator
CCOC(=O)c1cc(CC)sc1/N=C/c1c(O)[nH]c(=S)[nH]c1=O,-1%,-2.9%,-7.0,8.9µM*,-1%,?,0.9%
CCCCCn1cc(C(=O)C(=O)N2CCOCC2)c2ccccc21,-21%,-0.6%,0.3,13%,-7%,nt,0.1%

# More structures.
SMILES,gsp agonist,ClpP mod,D2 agonist,Sfp PPTase inh,gsp antagonist,Menin-MLL FL inh,PINK1 modulator
O=C1NC(=O)C2(Cc3ccccc3N3CCCC32)C(=O)N1c1ccccc1 (configuration not stated),13%,-9.5%,-3.1,?,-21%,-0.2,0.8%
O=c1c2ccccc2nc(N2CCCC2)n1-c1ccc(Cl)cc1,-73%[inhibitor],22µM*,-2.6,-16%,-13%,5.8,67%[38.3 µM]
CCN1CCN(C(=O)COc2ccc(S(=O)(=O)NC(C)C)cc2)CC1,-12%,0.0%,-1.3,4%,-2%,2.1,4.6%[38.3 µM]
O=c1[nH]c(=O)n(-c2cccc3ccccc23)c(O)c1/C=N/N1CCCCC1,-10%[15.4 µM],1.7%,4.0,11%,1%,3.1,1.2%
CCOc1ccc(N2C(=O)NC(=O)/C(=C\c3cc(OC)c(OC)cc3[N+](=O)[O-])C2=O)cc1,-13%[15.4 µM],nt,1.7,45µM*,-7%,5.7,5.1%
O=C1NC(=O)C(CCc2ccncc2)(CCc2ccncc2)C(=O)N1C1CCCCC1,3%[15.4 µM],nt,0.5,4%,-3%,2.6,0.5%
CNC(=S)N/N=C1\C2CN3CCN(C2)CC1(c1ccccc1)C3,-2%,1.8%,-0.8,-18%,17%,-4.5,0.7%
Cc1cc(C)n(-c2ccc(NN=C(C#N)C#N)cc2)n1,-1%,2.5%,-15,?,?,-2.0,?
CCN(CC)C(=O)N[C@H]1C[C@@H]2c3cccc4[nH]cc(c34)C[C@H]2N(C)C1,nt,-4.4%,nt,17%,-9%,?,1.9%
COP(=O)(NC(=O)C(Cl)(Cl)Cl)OC,6%,0.4%,-6.3,-3%,4%,4.4,2.2%
CC1CN=C(NC(C)c2ccccc2)S1 (configuration not stated),-30%,-1.5%,-0.7,-28%,-3%,-0.4,1.7%
CN(C)CCSCc1nnc2n1-c1ccc(Cl)cc1C(c1ccccc1Cl)=NC2,-11%[15.4 µM],nt,-3.7,nt,0%,nt,-0.4%
Cc1cc([P+](=O)O)c(C)n1-c1ccc(Br)cc1,-6%,0.8%,-1.5,13%,5%,3.3,nt
CC1CC(NC(=O)C2C3CCC(O3)C2C(=O)O)CC(C)(C)C1 (configuration not stated),13%,-2.0%,1.1,5%,13%,nt,19%
CC(Cc1ccccc1)N1Cc2ccccc2C1 (configuration not stated),21%,2.7%,-2.2,11%,3%,7.6,2.6%
Cc1nc2ccc(N3CCN(C)CC3)cc2nc1C,14%[15.4 µM],nt,-7.3,8%,12%,-15,0.0%
Fc1ccccc1CCNCc1cccc(Cl)c1Cl,11%,0.1%,-1.4,0%,6%,6.0,nt
O=C(CCN1CC=C(c2ccccc2)CC1)NCc1ccccc1,-29%,-2.4%,-2.0,nt,nt,nt,4.0%
COc1ccc(CNCCc2ccc3c(c2)OCO3)cc1Br,-25%,0.9%,-5.1,?,0%,-12,8.6%
O=[N+]([O-])c1ccc(N2CCCCCC2)c2nonc12,?,nt,-3.8,-5%,-20%,?,40µM*
CCOC(=O)C(O)(c1ccc(NC(=S)NC(=O)c2ccc(Cl)cc2Cl)c(C)c1)C(F)(F)F (configuration not stated),-1%[15.4 µM],-2.3%,-3.5,-15%,?,-1.6,?
